# Screens (PubChem BioAssay)
# LANA-H2A inh: blocks KSHV LANA binding to histone H2A/H2B; Q9QR71; cell-free LANA-H2A/H2B peptide, fluorescence polarization; inhibition, % (no concentration beside the values); actives 0.6% (n = 320,000); AID 2629; in the data active = inhibition mostly above about 10%, no sharp cut-off; inactive = mostly below about 6.7%;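 note: stock transfer was 7.5 nL into about 10 µL; 0% = median of vehicle wells and 100% = median of positive control wells; one replicate is shown; the record names a cut of 25% in any replicate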
# Target sequence (Q9QR71 whole entry, looked up): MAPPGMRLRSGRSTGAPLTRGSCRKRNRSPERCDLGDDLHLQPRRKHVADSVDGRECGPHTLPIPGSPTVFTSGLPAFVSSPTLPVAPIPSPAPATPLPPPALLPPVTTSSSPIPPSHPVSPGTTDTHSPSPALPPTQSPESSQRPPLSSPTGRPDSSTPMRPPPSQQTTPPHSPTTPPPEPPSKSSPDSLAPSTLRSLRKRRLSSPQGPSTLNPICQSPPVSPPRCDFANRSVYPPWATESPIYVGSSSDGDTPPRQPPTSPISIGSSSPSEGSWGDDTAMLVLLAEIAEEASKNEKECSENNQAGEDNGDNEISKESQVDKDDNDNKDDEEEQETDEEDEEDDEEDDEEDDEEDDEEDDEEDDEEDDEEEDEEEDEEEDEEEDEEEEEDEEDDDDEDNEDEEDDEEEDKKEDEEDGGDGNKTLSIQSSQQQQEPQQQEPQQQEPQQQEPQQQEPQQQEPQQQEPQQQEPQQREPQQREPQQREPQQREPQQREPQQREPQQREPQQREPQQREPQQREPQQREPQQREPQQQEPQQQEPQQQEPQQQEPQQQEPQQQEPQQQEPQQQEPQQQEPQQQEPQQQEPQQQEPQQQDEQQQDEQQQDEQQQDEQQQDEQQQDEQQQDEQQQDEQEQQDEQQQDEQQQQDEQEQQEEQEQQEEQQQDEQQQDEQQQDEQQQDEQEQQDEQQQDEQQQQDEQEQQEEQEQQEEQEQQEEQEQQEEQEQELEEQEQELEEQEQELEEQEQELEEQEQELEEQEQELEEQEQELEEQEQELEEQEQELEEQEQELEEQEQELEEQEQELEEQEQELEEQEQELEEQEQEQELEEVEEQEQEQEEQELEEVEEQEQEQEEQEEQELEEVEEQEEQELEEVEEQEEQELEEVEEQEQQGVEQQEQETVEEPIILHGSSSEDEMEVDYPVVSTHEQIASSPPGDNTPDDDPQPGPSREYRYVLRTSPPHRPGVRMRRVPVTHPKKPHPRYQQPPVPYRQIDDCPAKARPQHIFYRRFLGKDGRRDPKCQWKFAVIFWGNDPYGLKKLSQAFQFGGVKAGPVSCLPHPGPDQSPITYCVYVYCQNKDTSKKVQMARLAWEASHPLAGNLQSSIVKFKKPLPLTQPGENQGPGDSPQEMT
# ALR H2O2 inh: inhibitors of human sulfhydryl oxidase ALR | P55789 | AID 485317 | actives 3.8% (n = 290,000) | inhibition, % (test concentration not listed) | purified ALR, DTT oxidation, H2O2 HRP-luminol luminescence;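 active = mean and each replicate at 75% or more; inconclusive = only one of the two met; inactive = neither met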;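 note: stock transfer was 7.5 nL into about 7.5 µL; 0% = neutral wells and 100% = wells with inactivated enzyme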
# B2AR ag: human beta-2 adrenergic receptor agonism by FAP. response, % (no concentration beside the values). actives 0.43% (n = 340,000). Am2.2-beta2AR cells, FAP receptor internalization, flow cytometry; reference of the scale not given here. P07550;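 active = response above a set limit, near 3 SD of response in nonfluorescent compounds, cut at about 42% in these data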;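 note: stock transfer was 100 nL into about 11 µL; a reference agonist was the positive control; negative values mostly stem from fluorescent compounds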
# HNF4A DNA FP: change in binding of human HNF4 alpha to DNA | HNF4a-FITC DNA binding, fluorescence polarization, 1 h | activity change, % at 10 µM | actives 0.3% (n = 360,000) | AID 1224865; in the data active = activity change above about 30%, passing the limit was not always enough;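 note: controls were the assay level and a saturating level of protein; the project sought stronger binding though the title names inhibitors; some compounds called inactive have numbers as strong as hits; positive values seem to mean higher polarization but the record does not say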
# E coli growth: inhibitors of Escherichia coli growth. OD600, 23 h; active compounds read low. OD600 absorbance (concentration not given with the values). actives 0.21% (n = 330,000). AID 1053175;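 active = OD600 absorbance below the run mean of sample wells minus 3.6 SD, in any replicate, cut at about 0.56 in these data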;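 note: stock transfer was 300 nL into about 60 µL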
# UCH37 DUB inh: human UCH37 deubiquitinating enzyme inhibition. inhibition, % (no concentration beside the values). purified proteasome/UCH37, Ub-AMC cleavage fluorescence. actives 0.33% (n = 330,000);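 active = mean of two replicates above 20%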;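 note: 0% = compound-free wells with enzyme and 100% = wells lacking proteasome; stock transfer was 100 nL into about 20 µL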
#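 Material: Human UCH37 enzyme supplied as purified proteasome complex | Schedule: 30 min preincubation with enzyme, 25 min cleavage at room temperature | Detection: AMC fluorescence 355/460 nm | Measure: % inhibition of Ub-AMC cleavage fluorescence | Controls: Wells without proteasome as full block, compound-free enzyme plus substrate as uninhibited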
# FGF22 binding: shifts melting point of recombinant human FGF22. Q9HCT0. calls only at 9.99 µM. AID 651658. actives 1.5% (n = 340,000). recombinant FGF22 thermal shift, SYPRO orange fluorescence; percent of sucrose octasulfate shift, DMSO zero;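 active = melting point raised past a set limit in the mean and every replicate; inconclusive = no clear call; three in four hits are not shown here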
# The depositor's hits bear a star; i = inactive; u = inconclusive; x = not tested or not shown; + = active, no number; & = joins results of further samples. A portion of the library; the hit share may differ from the screen's.
no.	canonical_smiles	HNF4A DNA FP	UCH37 DUB inh	B2AR ag	LANA-H2A inh	FGF22 binding	E coli growth	ALR H2O2 inh
1	CC1(C)CC(CCC(=O)NC(=S)Nc2ccccc2Cl)C(=O)O1 (centres undefined)	-3.1	1.0	6	-3.5	x	0.72	3
2	CC(CN1CCN(C)CC1)OC(=O)c1ccccc1Cl (centres undefined)	0.0	1.4	-10	0.4	x	0.72	2
3	Cc1ccsc1C(=O)OCc1nnc(-c2ccccc2)o1	3.1	0.1	-5	-1.2	i	0.67	8
4	CC(C)c1ccc(N2C(=O)C(Cl)=C(N3CCOCC3)C2=O)cc1	-2.0	-21	7	3.4	i	0.65	-3
5	CCNC(=O)COC(=O)c1ccc(-n2nc(C)cc2C)cc1	-3.9	4.9	-2	1.3	i	0.68	1
6	CS/C(=N\S(=O)(=O)c1cccs1)Nc1ccc(F)c(Cl)c1	2.6	2.1	1	3.7	+	0.62	0
7	CC/C(=N\NC(=O)Nc1nonc1N)c1ccc(OC)c(OC)c1	-2.3	x	5	-1.5	i	x	-9
8	O=C(/C(=N\Nc1ccccc1)Sc1nnnn1-c1ccccc1)c1ccccc1	0.5	x	0	-6.4	x	x	-3

# The closing 3 entries of the part above come first, to join the parts.
no.	canonical_smiles	HNF4A DNA FP	UCH37 DUB inh	B2AR ag	LANA-H2A inh	FGF22 binding	E coli growth	ALR H2O2 inh
6	CS/C(=N\S(=O)(=O)c1cccs1)Nc1ccc(F)c(Cl)c1	2.6	2.1	1	3.7	+	0.62	0
7	CC/C(=N\NC(=O)Nc1nonc1N)c1ccc(OC)c(OC)c1	-2.3	x	5	-1.5	i	x	-9
8	O=C(/C(=N\Nc1ccccc1)Sc1nnnn1-c1ccccc1)c1ccccc1	0.5	x	0	-6.4	x	x	-3
9	COc1ccc(C2C(C#N)=C(N)Oc3c2ccc2cccnc32)cc1OC (centres undefined)	1.7	2.4	-17	0.0	i	0.7	-22
10	CCc1nnc(NC(=O)CSc2nnc(-c3cc4ccccc4cc3O)n2CCOC)s1	3.9	-0.1	2	4.2	x	0.66	23
11	O=C(N1CCOCC1)N1CCc2ccccc21	-1.2	0.0	5	1.8	i	0.7	-9
12	O=C(Cc1ccccc1F)OCC(=O)N1CCN(C(=O)c2ccco2)CC1	-1.4	3.5	4	-3.5	x	0.7	-3
13	Cc1oc(-c2ccccc2Cl)nc1CS(=O)CC(=O)NCc1cccs1 (centres undefined)	1.5	4.4	-11	0.3	i	0.74	x
14	COC(=O)c1cccc(NS(=O)(=O)c2ccc(NC(C)=O)cc2)c1C	-1.6	4.6	-3	1.7	x	0.7	-2
15	O=C(NCCN1CCN(c2cccc(Cl)c2)CC1)c1cccn2c(=O)c3ccccc3nc12	4.2	-12	2	x	i	0.72	x
16	CCN(CC)S(=O)(=O)c1ccc(N2CCOCC2)c(NC(=O)C2COc3ccccc3O2)c1 (centres undefined)	2.6	0.3	8	0.0	i	0.72	-4
17	C=CCOC(=O)C(C#N)c1nc2ccccc2nc1N1CCN(c2ccccc2OC)CC1 (centres undefined)	2.7	3.0	7	0.4	x	0.82	x
18	C=CCn1c(SCCN2CCCC2)nc2c([nH]c3ccccc32)c1=O	-3.6	5.0	10	0.5	i	0.71	2
19	O=C(O)c1ccccc1C(=O)NCC(O)c1ccccc1 (centres undefined)	1.5	1.3	-5	-3.8	i	0.68	2
20	COc1ccc(-c2cc(-c3ccco3)[nH]c(=O)c2C#N)cc1OC	-35	-112	2	6.8	i	0.65	x
21	CC1=C(C(=O)Nc2ccc(Br)cc2)C(c2ccco2)NC(=O)N1 (centres undefined)	-2.9	2.3	5	-5.0	i	0.69	15
22	COc1ccc(C(=O)NCC(C)CN(C)C)cc1 (centres undefined)	-1.1	-0.4	-6	-4.7	x	0.78	1
23	Cc1cccc(COC(=O)C(Cc2ccccc2)NC(N)=O)c1 (centres undefined)	1.2	0.7	-3	1.4	i	0.7	2
24	COc1ccc(NS(=O)(=O)c2c(C)[nH]c(C)c2C(=O)N2CCCCC2)cc1Cl	-2.5	2.7	-3	1.4	i	0.7	-4
25	O=C1C=C(c2cccc(CO)c2)C[C@@H](c2ccc(F)cc2)C1	5.7	1.8	-9	1.4	i	x	-2
26	CCN(CC)CCOC(=O)c1ccc(NC(=O)CSc2nnc(-c3cccs3)n2CC)cc1	0.4	0.7	-13	x	i	0.7	x
27	O=C(Nc1cccnc1)c1ccc2snnc2c1	-0.3	3.9	9	1.2	x	0.69	u
28	O=S(=O)(c1cc(-c2nnc(-c3ccc(Br)cc3)o2)ccc1Br)N1CCCCCC1	1.5	0.2	2	8.1	x	0.77	-4
29	O=S(=O)(Cc1ccccc1)Nc1ccccc1Br	1.4	3.4	2	2.1	i	0.64	x
30	COC(=O)[C@H](Cc1ccc(O)cc1)NC(=O)Cn1ccc(NC(=O)OCc2ccccc2)nc1=O	1.5	-0.7	12	-1.4	i	x	22
31	CN(C(=O)CSc1nc(C2CC2)n(-c2ccccc2)n1)C1CCS(=O)(=O)C1 (centres undefined)	-5.2	1.6	-15	x	i	0.64	x
32	CC(C)=NOc1nc(NC(=O)NS(=O)(=O)c2ccccc2Cl)nc(N(C)C)n1	-0.2	3.2	-3	-1.1	i	0.68	0
33	COc1ccc(NC(=O)CSc2nnc(-c3ccccn3)n2N)cc1	-0.1	1.1	-4	4.0	x	0.66	-11
34	CC(C)(C)C(=O)N1NC(=Nc2ccccc2)SC1(C)C	-1.1	4.9	2	1.1	i	0.71	0
35	Cc1ccc(C)c2[nH]c(=O)c(CN(Cc3cccs3)C(=S)NCc3ccco3)cc12	2.9	2.5	3	-1.5	x	0.71	-3
36	O=Cc1ccccc1OS(=O)(=O)c1ccccc1	2.2	6.3	3	-5.9	x	0.67	x
37	CCC(=O)C1CCCN(C(=O)CCc2nnc(C3(c4ccc(Cl)cc4)CCC3)o2)C1 (centres undefined)	-1.8	3.1	3	-0.5	i	0.69	-1
38	CCCCCC(=O)N1CCN(CCN=CC2=C(O)CC(c3ccc(OC)c(OC)c3)CC2=O)CC1 (centres undefined)	2.1&1.0	0.8&2.3	0&28	-0.5	i	0.7&0.74	-3
39	CC(C)[C@@H]1COC(c2cccc(C3=N[C@H](C(C)C)CO3)c2)=N1	9.7	3.0	-8	3.8	i	x	5
40	COCCCNC(=O)c1cccc(C(=O)NCCCOC)c1	2.2	3.1	-3	-2.3	x	0.62	4
41	O=C(N/C(=C/c1ccc(Br)cc1)C(=O)N1CCOCC1)c1cccs1	3.5	0.9	4	4.3	x	x	-1
42	CCC(=O)N1CCN(c2ccc(NC(=O)c3ccc4ccccc4c3)cc2)CC1	-0.8	2.3	-4	1.2	i	0.71	1
43	O=Cc1ccc(OCCOc2ccc([N+](=O)[O-])cc2)cc1	0.2	2.2	4	-3.2	i	0.62	-11
44	CCn1c(SCC(=O)NC(C)(C)C)nc(O)cc1=O	0.5	3.9	0	0.1	x	0.7	x
45	Cc1cc(C)n2nc(C(=O)N3CCCC(N4CCN(c5ccccc5C)CC4)C3)cc2n1 (centres undefined)	0.6	-15	-13	x	i	0.71	x
46	Cc1cc(C)c(OCCCCCn2ccnc2)c(C)c1	3.8	1.9	-8	-8.1	i	0.63	4
47	O=C(O)CC1COc2ccccc2N1C(=O)c1ccccc1Cl (centres undefined)	-2.9	2.1	-4	4.4	i	0.69	3
48	COc1ccc(N(C(=O)c2cccc([N+](=O)[O-])c2)S(=O)(=O)c2ccc3c(c2)n(C)c(=O)n3C)cc1	1.3	2.5	54*	1.3	x	0.7	-1

# Entries shown so far with a cyano group (3):
no.	canonical_smiles	HNF4A DNA FP	UCH37 DUB inh	B2AR ag	LANA-H2A inh	FGF22 binding	E coli growth	ALR H2O2 inh
9	COc1ccc(C2C(C#N)=C(N)Oc3c2ccc2cccnc32)cc1OC (centres undefined)	1.7	2.4	-17	0.0	i	0.7	-22
17	C=CCOC(=O)C(C#N)c1nc2ccccc2nc1N1CCN(c2ccccc2OC)CC1 (centres undefined)	2.7	3.0	7	0.4	x	0.82	x
20	COc1ccc(-c2cc(-c3ccco3)[nH]c(=O)c2C#N)cc1OC	-35	-112	2	6.8	i	0.65	x

# Further compounds
no.	canonical_smiles	HNF4A DNA FP	UCH37 DUB inh	B2AR ag	LANA-H2A inh	FGF22 binding	E coli growth	ALR H2O2 inh
49	O=C(CN1C(=O)NC(Cc2ccccc2)C1=O)Nc1ccc(F)c(Cl)c1 (centres undefined)	-0.3	1.4	2	4.4	i	0.66	-3
50	CCOC(=O)CSc1nnc2c(n1)C1(C)CCC2C1(C)C (centres undefined)	-0.5	-0.6	6	-6.4	x	0.68	x
51	COc1cccc(/C=N/NC(=O)CNC(=O)c2ccncc2)c1O	1.5	x	11	3.4	i	x	91*
52	CC(CC(=O)Nc1ccc(Br)cc1F)S(=O)(=O)c1ccc2c(c1)NC(=O)CO2 (centres undefined)	1.7	3.4	3	5.2	i	0.7	-6
53	COc1cccc(CN2CCN(Cc3cccc(Br)c3)CC2)c1OC	-0.5	-0.7	17	2.1	i	0.64	-17
54	CC(=O)c1cccc(NC(=O)C2CCCC2)c1	-1.4	0.4	-2	2.9	x	0.74	-4
55	CCc1nnc(NC(=O)CSc2nnc(CNC(=O)c3cc(OC)c(OC)c(OC)c3)o2)s1	-0.7	4.6	0	0.0	i	0.71	-1
56	COc1cc(NC(=O)CSc2ncnc3sc4c(c23)CCC(C)C4)c(C(=O)O)cc1OC (centres undefined)	-1.4	x	-12	-2.4	i	x	8
57	COCc1cc(C)nc(N2CCNCC2)c1C#N	1.0	-45	4	-2.3	x	0.67	-9
58	CCC1(C)Cc2nc3[nH]c(=S)n(-c4ccccc4C)c(=O)c3cc2CO1 (centres undefined)	-2.2	4.6	0	-2.6	i	0.77	x
59	Cc1ccccc1CN1CCN(C(=O)c2cc(-c3ccncc3)nc3ccccc23)CC1	-0.3	1.0	23	1.1	i	0.68	-13
60	Cc1cc(OC(=O)c2ccco2)c2c(C)cc(=O)oc2c1	-0.8	-4.0	-2	-0.7	x	0.69	9
61	CCN(CC)c1ccc(NC(=O)c2ccc(Br)o2)cc1	0.6	4.6	3	1.8	x	0.66	96*
62	COc1ccc(CCNCc2cc(C)n(-c3ccc(OC)cc3)c2C)cc1	0.9	x	29	2.9	i	x	x
63	CCOc1ccc(NS(=O)(=O)c2ccc3c(c2)n(C)c(=O)n3C)cc1	0.0	3.1	-14	0.2	i	0.66	1
64	CC1CCCC(O)(C(C(=O)O)c2ccccc2)C1 (centres undefined)	-2.9	3.4	2	x	x	0.69	x
65	CC(=O)Nc1ccc(S(=O)(=O)N2CCN(C(=O)c3ncoc3-c3cccc(C)c3)CC2)cc1	1.4	2.4	-7	-2.8	i	0.68	x
66	CC1(C)Cc2cccc(OCC(=O)N3CCN(S(=O)(=O)c4ccccc4F)CC3)c2O1	0.5	1.9	-3	-0.6	x	0.68	x
67	Cc1cc(/C=N/NC(N)=O)c(C)n1-c1ccc(F)cc1	3.4	x	-4	2.8	i	x	-1
68	CCOC(=O)c1c(C)cccc1OCC(N)=O	-0.4	2.5	-6	-1.6	x	0.71	-4
69	CCCCC(=O)NC(c1ccc(OC)c(OC)c1)c1c(O)ccc2ccccc12 (centres undefined)	2.2	-1.6	12	1.0	i	0.65	-24
70	COc1ccc(COCC(O)CN2CCC(C(N)=O)CC2)cc1 (centres undefined)	2.0	3.4	1	0.2	i	0.68	-3
71	Cc1ccc(C)c(N2CCN(CCCNC(=O)Cn3cc4c(n3)CCC(C)C4)CC2)c1 (centres undefined)	6.7	1.8	8	-4.5	i	0.66	-1
72	CCOC(=O)c1sc(NC(=O)CSc2nc(-c3ccco3)cc(C(F)(F)F)n2)c(C(=O)OC)c1C	0.1	-3.7	7	9.9	i	0.7	-5
73	Cn1c(=O)oc2cc(S(=O)(=O)Nc3cccc4c3CCCC4)ccc21	6.3	1.4	-106	3.1	x	0.72	1
74	CC(=O)N1CCC(=NNc2ccc(S(=O)(=O)N3CCOCC3)cc2[N+](=O)[O-])CC1	1.1	1.7	-5	-5.4	i	0.7	0
